Bioassay records deposited in PubChem by National Center for Advancing Translational Sciences (NCATS).
D2 PAM: Beta-Arrestin HTS for Positive Allosteric Modulators of the Human D2 Dopamine Receptor: Potentiators. DiscoveRx D2 beta-arrestin cells, luminescence, 90 min; 100% = 57 uM dopamine signal. 360,000 compounds, 0.23% hits. D(2) dopamine receptor (Homo sapiens), P14416. potentiation, % (concentration not given with the values); active = potentiation of 50% or more; inconclusive = 30% to 50%; inactive = 30% or less;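 note: tested on top of an EC20 dose of dopamine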
Target sequence (P14416 whole entry, looked up): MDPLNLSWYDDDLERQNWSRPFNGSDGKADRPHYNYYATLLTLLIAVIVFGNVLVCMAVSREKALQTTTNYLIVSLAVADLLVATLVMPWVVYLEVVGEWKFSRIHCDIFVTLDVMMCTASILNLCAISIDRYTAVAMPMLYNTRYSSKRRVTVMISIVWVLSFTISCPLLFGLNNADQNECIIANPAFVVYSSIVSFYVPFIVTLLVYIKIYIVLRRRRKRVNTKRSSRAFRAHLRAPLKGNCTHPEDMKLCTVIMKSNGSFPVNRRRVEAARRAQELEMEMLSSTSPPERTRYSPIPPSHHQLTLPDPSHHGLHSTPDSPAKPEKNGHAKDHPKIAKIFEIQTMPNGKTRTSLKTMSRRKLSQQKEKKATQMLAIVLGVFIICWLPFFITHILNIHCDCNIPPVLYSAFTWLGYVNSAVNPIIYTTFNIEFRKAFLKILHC
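PathHunter beta-arrestin assay in DiscoveRx D2 cells. Compounds were added with an EC20 of dopamine (50 nM final) for 90 min at 37 deg C. Luminescence was read 1 h after detection reagent, with 57 uM dopamine as the EC100 control.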
TRPML1 blocker: qHTS for Inhibitors of the Human Mucolipin Transient Receptor Potential 1 (TRPML1). TRPML1-inducible cells, Ca2+ dye fluorescence, FDSS; hits give low values; inhibition of EC80 agonist-evoked calcium signal. activity change, negative = inhibition, % (test concentration not listed). 390,000 compounds, 0.02% hits; in the data active means activity change below about -50%; inconclusive means about -30% to -50%; inactive means above about -30%;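 note: stimulus is agonist 54-4 at its EC80 concentration; % is set by controls: 0 for no effect and ±100 for the full control effect; compound concentration not given in the record; the text of the record puts the active cut at -80%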
Target sequence (Q9GZU1 whole entry, looked up): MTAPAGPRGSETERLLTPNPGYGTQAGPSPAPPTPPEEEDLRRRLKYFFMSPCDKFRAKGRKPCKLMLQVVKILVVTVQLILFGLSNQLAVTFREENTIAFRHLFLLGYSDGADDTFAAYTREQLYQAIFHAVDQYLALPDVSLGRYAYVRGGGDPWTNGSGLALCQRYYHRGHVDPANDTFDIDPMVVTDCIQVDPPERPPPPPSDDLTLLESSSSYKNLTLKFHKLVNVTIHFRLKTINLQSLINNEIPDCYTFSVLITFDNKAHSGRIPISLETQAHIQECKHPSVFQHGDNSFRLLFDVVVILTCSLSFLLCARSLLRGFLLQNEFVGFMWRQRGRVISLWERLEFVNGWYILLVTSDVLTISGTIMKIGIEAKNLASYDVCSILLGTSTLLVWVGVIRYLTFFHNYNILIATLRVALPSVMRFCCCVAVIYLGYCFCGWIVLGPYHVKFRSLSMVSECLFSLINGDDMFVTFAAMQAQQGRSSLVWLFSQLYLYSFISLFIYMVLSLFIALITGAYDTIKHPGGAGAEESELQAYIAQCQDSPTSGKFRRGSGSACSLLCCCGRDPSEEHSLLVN
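TRPML1-DL cells, Tet-induced overnight (~16 h, 37 °C) at 1,500 cells/well, were loaded with Ca8 no-wash dye plus quencher for 45-90 min at room temperature. Compounds were pinned during FDSS kinetic reading; agonist 54-4 at EC80 (4 uM final) then added.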
Six1-Eya2 blk: qHTS Assay for Inhibitors of the Six1/Eya2 Interaction; 360,000 compounds, 0.56% hits; activity change, % (test concentration not listed); AlphaScreen GST-Six1/His-Eya2 binding, biochemical; hits give low values; control for the full effect not named in the record; Homeobox protein SIX1 (Homo sapiens) + Protein phosphatase EYA2 (Homo sapiens), …; AID 651725, 2012; in the data active = activity change below about -65%; inconclusive = about -30% to -65%; inactive = above about -30%; note: % is set by controls: 0 for no effect and ±100 for the full control effect
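AlphaScreen with GST-Six1 and His-Eya2 (5X mix: 250 nM and 500 nM), glutathione donor and nickel acceptor beads; buffer 50 mM Tris pH 8.0, 300 mM NaCl, 1 mM TCEP; 1 h at 37 C in the dark.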
TRPML1 ag: qHTS for Agonists of the Human Mucolipin Transient Receptor Potential 1 (TRPML1); activation, % (concentration not given with the values); AID 624414, 2012; Mucolipin-1 (Homo sapiens), Q9GZU1; TRPML1-expressing cells, Ca2+ dye fluorescence, FDSS; host cell line not named in the record; reference of the full effect not given here; 410,000 compounds, 0.12% hits; in the data active = activation above about 50%; inconclusive = about 30% to 50%; inactive = below about 30%; note: 0% is about no effect; the text of the record puts the active cut at 80%
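Tetracycline-induced TRPML1-DL cells are seeded and incubated overnight before loading with a no-wash Ca2+ dye and quencher. Agonist activity is taken from the 110 s fluorescence read following compound pin-transfer on an FDSS, before EC80 54-4 challenge.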
TRPV1 PAM: HTS Assay for Compounds that Act as Potentiators of the Vanilloid Receptor 1. 320,000 compounds, 0.02% hits. potentiation, % at 8.33 µM. TRPV1-expressing cells, Fluo-8 calcium influx, capsaicin EC20 potentiation; host cell line not named in the record; control for the full effect not named in the record; active means potentiation above 80%; inconclusive means 30% to 80%; inactive means below 30%; note: 0% is about no effect
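Fluo-8 calcium influx in TRPV1-expressing cells, kinetic read (ex 480/em 520 nm). Compound added and read 3 min for agonist activity, followed by capsaicin at EC20 final and 2 min further read for enhancement.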
CtBP-E1A blk: qHTS Assay for Inhibitors of the CtBP/E1A Interaction; AlphaScreen GST-E1A/His-CtBP binding, 1536-well; hits give low values; control for the full effect not named in the record; activity change, % (test concentration not listed); 340,000 compounds, 0.49% hits; AID 651724, 2012; in the data active means activity change below about -65%; inconclusive means about -30% to -65%; inactive means above about -30%; note: % is set by controls: 0 for no effect and ±100 for the full control effect
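Protein mix (5X: 125 nM each GST-E1A, His-CtBP) was incubated with pinned compound 2 h at 37 deg C in dark, in 50 mM Tris pH 8.0 buffer with 300 mM NaCl. Glutathione donor and nickel acceptor beads followed; AlphaScreen signal read after 1 h.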
* = called active by the depositor; u = inconclusive; x = not tested or not shown; & = joins results of further samples.

SMILES	D2 PAM	TRPML1 blocker	Six1-Eya2 blk	TRPML1 ag	TRPV1 PAM	CtBP-E1A blk
COc1ccc(/C=N/NS(=O)(=O)c2ccc(NC(C)=O)cc2)cc1	-1.9	-17.1	0.0	0.9	1.2	3.0
COc1ccc(C2CC(c3ccccc3Cl)=NN2c2ccc(S(N)(=O)=O)cc2)cc1 (stereo not given)	-3.0	75.9	22.4	0.3	x	23.9
O=C(NC(=S)NCc1ccccc1)c1cccc([N+](=O)[O-])c1	-4.6	4.8	-24.0	-1.6	-2.9	x
Cc1ccc(NC(=O)CN2CCC(NC(=O)c3ccccc3F)CC2)cc1C	-8.6	-5.6	13.7	1.8	-12.3	0.0
Cc1cccc(NC(=S)NN2CCN(C)CC2)c1C	-5.1	-0.2	3.2	-0.7	-5.3	5.5
O=C(COC(=O)C1CC1)Nc1c(Cl)cccc1C(F)(F)F	-0.5	25.7	9.2	0.7	18.2	-0.1
COc1ccc(S(=O)(=O)N2CCCCC2)cc1NC(=O)Cc1sc(C)nc1-c1ccc(F)cc1	-3.1	15.8	2.0	1.4	14.6	-15.5
CCOC(=O)c1cnc(-n2nc(C)cc2C)nc1NC(C)c1ccccc1 (stereo not given)	-8.3	-4.5	5.0	0.0	-0.9	-3.6
CC(=O)N1C(Nc2ccc(Cl)cc2)CCN1c1ccccc1 (stereo not given)	-5.4	11.5	-1.3	-0.9	14.3	1.8
CCOc1ccc(CNC(=S)NCc2ccc(OCC)cc2)cc1	-8.6	-20.8	21.2	2.6	-14.0	16.4
CCOc1ccc(Br)cc1S(=O)(=O)NCCN(C)C	-26.3	-3.9	19.2	0.8	4.8	0.0
Cc1nc2ccccn2c(=O)c1NC(=O)c1ccc2c(c1)OCO2	-9.8	-3.5	7.2	0.3	x	0.0
CCOC(=O)C1(C)/C(=N/Nc2ccc(Cl)cc2)C(=O)C(=O)N1c1ccccc1 (stereo not given)	-5.3	-0.8	9.9	1.5	13.5	20.2
COc1ccc(C(=O)NC2CCCc3c2cnn3-c2cc(F)cc(F)c2)c(OC)c1OC (stereo not given)	1.5	-18.0	-0.5	-0.6	-1.8	-7.6
COCCC(=O)N1CCc2ccc(NC(=O)c3ccc(C(F)(F)F)cc3)cc2C1	-2.2	8.9	-0.2	-0.1	-13.4	12.2
CSc1ccc(CCNC(=O)CCc2nnc3ccc(N4CCOCC4)nn23)cc1	-7.1	0.4	10.4	-0.8	-6.1	-17.4
CCOc1ccc(N(CC(=O)NC2CCCCC2)C(=O)CCC(=O)Nc2nc(C)cs2)cc1	-8.3	0.6	6.2	6.9	15.9	2.6
COc1cccc(NC(=O)c2c(C)cc(C)cc2CC(C)(C)C(=O)O)c1	-29.9	13.1	10.8	-0.8	-14.1	-10.6
COc1cccc(C(=O)NCC2(c3ccc(OC)c(OC)c3)CCCC2)c1	-1.4	1.7	-2.1	0.9	-10.0	-3.1
O=C(COC(=O)CNC(=O)c1cccc([N+](=O)[O-])c1)Nc1cccc(S(=O)(=O)N2CCCC2)c1	-2.1	-13.0	-6.0	2.0	-2.0	-4.7
CC(CNC(=O)c1cncc(O)c1)NC(=O)c1cncc(O)c1 (stereo not given)	2.2	-14.4	14.1	-0.5	-3.4	8.0
COc1ccc(/C=N/NC(=O)c2ccc(=O)n(C)c2)cc1OC	-9.4	16.7	-9.3	1.6	6.0	-2.2
Cc1ccc(C)c(NC(=S)NNC(=O)c2csc3c2CCCC3)c1	-22.8	21.5	-4.4	1.7	-9.9	-9.8
O=C(CN1CCN(c2ccc(O)cc2)CC1)Nc1ccc2c(c1)OCCCO2	14.9	0.4	-25.2	-0.9	-1.0	x
CC(=O)c1ccc(NC(=S)Nc2ccc(Br)c(Cl)c2)cc1	-16.1	-3.5	1.2	0.1	-0.9	-4.6

Remaining list, next part
SMILES	D2 PAM	TRPML1 blocker	Six1-Eya2 blk	TRPML1 ag	TRPV1 PAM	CtBP-E1A blk
O=C(O)[C@H](Cc1ccccc1)NC(=O)N1CCN(c2ccc(F)cc2)CC1	-10.0	-6.6	-0.5	1.0	-2.0	x
CCc1c(C)[nH]c2c(C)cccc2c1=O	-1.0	8.2	7.8	-0.1	9.6	4.5
Cc1nn2c(CN(C(=O)c3ccco3)c3ccccc3)nnc2c2ccccc12	12.0	-7.3	-3.8	-0.5	x	-13.1
CCN1CCN(CCCNC(=O)c2cc3c(=O)[nH]c4ccccc4c3s2)CC1	-20.6	-2.5	-19.6	1.0	-0.2	6.8
COCCN(Cc1cc2cc(C)ccc2n2nnnc12)C(=S)Nc1ccc(OC)cc1	-3.5	x	-1.1	x	x	4.5
Cc1sc2ncn(CC(=O)NCC(=O)N3CCN(c4ccc(F)cc4)CC3)c(=O)c2c1C	-2.3	-15.9	9.8	2.2	3.4	0.8
CCn1c(C)nc2cc(C(=O)NNC(=O)c3ccc(Cl)nc3)ccc21	-4.5	4.3	6.1	0.0	1.4	x
COCCN1C(=O)N(c2ccccc2)C(=O)C1CC(=O)Nc1cc(OC)cc(OC)c1 (stereo not given)	-1.8	-0.4	0.1	0.0	-2.6	-7.7
Cc1cccc(NC(=O)COC(=O)CCc2ccc(S(=O)(=O)N3CCOCC3)cc2)c1C	-5.9	3.3	8.4	-0.3	1.4	-2.2
CC1CCc2nc(NC(=O)c3ccco3)sc2C1 (stereo not given)	-13.4	2.1	-3.4	-0.7	1.4	-0.7
CC(=O)c1c(C)[nH]c(C(=O)OCC(=O)Nc2sc3c(c2C#N)CCCC3)c1C	17.1	-3.4	-3.4	1.4	11.0	-0.6
Cc1ccc(S(=O)(=O)N2CCN(S(=O)(=O)N3CCOCC3)CC2)c(C)c1	7.8	-11.8	-0.9	0.5	0.7	-1.7
Cc1cc(OCC(=O)Nc2cnn(CCCC(=O)O)c2)ccc1Cl	-12.8	9.7&19.5	1.2	-0.6&1.6	1.4	-3.3
CCOc1ccc(N2C(=O)CC(S/C(N)=N/N=C/c3cccs3)C2=O)cc1 (stereo not given)	6.2	1.1	6.6	0.1	13.5	-0.8
CCOC(=O)N=Nc1c(O)n(Cc2ccccc2)c2ccccc12	-3.3	22.1	-0.3	1.8	-2.5	x
CC12CCC(=O)N1C(C(=O)Nc1ccc(F)c(Cl)c1)CS2 (stereo not given)	-4.9	15.2	-13.4	0.6	-17.9	-1.4
Cn1c(SCC(=O)Nc2cccc(C(=O)O)c2)nnc1-c1cc2cc(Br)ccc2o1	0.3	-2.6	u	0.5	17.1	x
CC(=O)c1sc(Nc2cccc(C)c2)nc1C	15.4	-20.1	2.7	-0.1	-0.1	21.7
CCn1cc(C(=O)NCc2ccco2)c(=O)c2cc(S(=O)(=O)N3CCCC3)ccc21	-1.2	-9.0	5.7	-0.4	-37.7	3.6
CCCSC1=C(C#N)C(c2ccc(Cl)cc2Cl)CC(=O)N1 (stereo not given)	-5.4	-0.7	1.8	1.0	28.1	5.9
COc1ccc(-c2cc(C(=O)N/N=C(\C)c3cccnc3)c3ccccc3n2)cc1	-37.8	16.0	-3.7	1.5	12.3	9.3
O=C(Nc1ccc(F)c(F)c1)c1cnc(-c2ccccc2)nc1-c1ccccc1	-4.2	12.0	5.9	2.1	-35.7	-4.9
COc1ccc(CC(=O)NC(c2ccccc2)c2ccccc2)cc1S(=O)(=O)N1CCOCC1	-12.8	11.5	-1.3	0.6	6.4	3.1
C[C@H](CO)N1C[C@H](C)[C@@H](CN(C)Cc2ccc(Cl)c(Cl)c2)Oc2c(NC(=O)C3CC3)cccc2C1=O	11.1	9.5	0.5	-0.3	x	-4.3
Cc1ccc(OCC(=O)Nc2ccc(N3CCN(C(=O)c4ccco4)CC3)cc2)cc1	-3.7	19.7	-11.4	0.9	-22.7	-12.6

7 compounds drawn at random from the list so far:
SMILES	D2 PAM	TRPML1 blocker	Six1-Eya2 blk	TRPML1 ag	TRPV1 PAM	CtBP-E1A blk
COCCN1C(=O)N(c2ccccc2)C(=O)C1CC(=O)Nc1cc(OC)cc(OC)c1 (stereo not given)	-1.8	-0.4	0.1	0.0	-2.6	-7.7
COCCN(Cc1cc2cc(C)ccc2n2nnnc12)C(=S)Nc1ccc(OC)cc1	-3.5	x	-1.1	x	x	4.5
Cc1nn2c(CN(C(=O)c3ccco3)c3ccccc3)nnc2c2ccccc12	12.0	-7.3	-3.8	-0.5	x	-13.1
COc1ccc(-c2cc(C(=O)N/N=C(\C)c3cccnc3)c3ccccc3n2)cc1	-37.8	16.0	-3.7	1.5	12.3	9.3
O=C(Nc1ccc(F)c(F)c1)c1cnc(-c2ccccc2)nc1-c1ccccc1	-4.2	12.0	5.9	2.1	-35.7	-4.9
CC(=O)c1sc(Nc2cccc(C)c2)nc1C	15.4	-20.1	2.7	-0.1	-0.1	21.7
CCOc1ccc(N2C(=O)CC(S/C(N)=N/N=C/c3cccs3)C2=O)cc1 (stereo not given)	6.2	1.1	6.6	0.1	13.5	-0.8

More records
SMILES	D2 PAM	TRPML1 blocker	Six1-Eya2 blk	TRPML1 ag	TRPV1 PAM	CtBP-E1A blk
O=C(N1CCN(c2ncccn2)CC1)C12CC3CC(CC(C3)C1)C2	-10.3	-8.9	-18.6	-0.7	x	8.1
O=C(CSc1nc2ccccc2[nH]1)c1ccccc1F	-14.5	8.9	-1.5	-0.6	u	2.3
CCOCCCNCc1cc(Br)ccc1OCC	-4.9	28.5	-5.2	1.0	5.9	6.6
COC(=O)CCN1CCC2CC1c1cc(Cl)ccc12 (stereo not given)	x	4.4	-1.0	-0.5	x	12.2
CN1CCN(Cc2nc3ccccc3c(=O)n2Cc2nc(-c3ccccc3F)cs2)CC1	21.9	21.9	-7.1	1.0	0.7	-13.4
C=CCNC(=S)NNC(=O)COc1c(Cl)cc(Cl)cc1Cl	-19.4	-1.3	-3.2	-0.2	1.1	-0.9
COC(=O)c1cnc(SCc2ccc(Cl)cc2)n1C	0.7	-11.0	24.4	3.0	-8.0	2.2
CC(C)NC(=O)C1COc2ccccc2O1 (stereo not given)	-6.7	-7.3	-0.7	0.0	-12.5	x
CCCCCc1nnc(N)s1	-6.8	-8.6	4.3	0.1	0.3	2.1
COc1cccc(C(=O)Nc2cc(C)nn2-c2ccccc2)c1OC	6.7	21.2	-5.5	-0.8	-6.5	1.8
Cc1nc(SCC(=O)N2CCCCCC2)[nH]c(=O)c1C	-3.0	-7.0	-25.9	0.3	8.0	-2.3
COC(=O)CNC(=O)COC(=O)/C=C/c1ccc2ccccc2n1	-12.1	4.2	-2.6	-0.4	4.7	-8.5
CCOC(=O)C1=C(CNCCc2ccc(Cl)cc2)NC(=O)NC1c1cccc([N+](=O)[O-])c1 (stereo not given)	-3.7	5.0	-16.3	1.5	19.9	-8.9
CCCCC(c1nnnn1CC1CCCO1)N1CCN(c2cccc(C)c2C)CC1 (stereo not given)	-3.0	5.2	2.0	-0.5	-6.4	6.5
